# CatB mixtures: inhibitors of human cathepsin B in compound mixtures | P07858 | Purified cathepsin B, AMC dipeptide fluorescence | inhibition, %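 (ten-compound pools at 5 µM per compound and 50 µM total)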 | 62,000 tested, 0.06% active | AID 488; in the data active = inhibition above about 22%, passing the limit was not always enough;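 also: 0% = enzyme without compound and 100% = no enzyme blank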
# E coli RNAP: inhibitors of Escherichia coli RNA polymerase | inhibition, %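 (tested at 10 µM)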 | P0A8V2 | 62,000 tested, 0.2% active | E. coli RNA polymerase, fluorescence transcription assay; in the data active = inhibition above about 20%;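 also: 0% = enzyme without compound and 100% = no enzyme blank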
# Target sequence (P0A8V2 whole entry, looked up): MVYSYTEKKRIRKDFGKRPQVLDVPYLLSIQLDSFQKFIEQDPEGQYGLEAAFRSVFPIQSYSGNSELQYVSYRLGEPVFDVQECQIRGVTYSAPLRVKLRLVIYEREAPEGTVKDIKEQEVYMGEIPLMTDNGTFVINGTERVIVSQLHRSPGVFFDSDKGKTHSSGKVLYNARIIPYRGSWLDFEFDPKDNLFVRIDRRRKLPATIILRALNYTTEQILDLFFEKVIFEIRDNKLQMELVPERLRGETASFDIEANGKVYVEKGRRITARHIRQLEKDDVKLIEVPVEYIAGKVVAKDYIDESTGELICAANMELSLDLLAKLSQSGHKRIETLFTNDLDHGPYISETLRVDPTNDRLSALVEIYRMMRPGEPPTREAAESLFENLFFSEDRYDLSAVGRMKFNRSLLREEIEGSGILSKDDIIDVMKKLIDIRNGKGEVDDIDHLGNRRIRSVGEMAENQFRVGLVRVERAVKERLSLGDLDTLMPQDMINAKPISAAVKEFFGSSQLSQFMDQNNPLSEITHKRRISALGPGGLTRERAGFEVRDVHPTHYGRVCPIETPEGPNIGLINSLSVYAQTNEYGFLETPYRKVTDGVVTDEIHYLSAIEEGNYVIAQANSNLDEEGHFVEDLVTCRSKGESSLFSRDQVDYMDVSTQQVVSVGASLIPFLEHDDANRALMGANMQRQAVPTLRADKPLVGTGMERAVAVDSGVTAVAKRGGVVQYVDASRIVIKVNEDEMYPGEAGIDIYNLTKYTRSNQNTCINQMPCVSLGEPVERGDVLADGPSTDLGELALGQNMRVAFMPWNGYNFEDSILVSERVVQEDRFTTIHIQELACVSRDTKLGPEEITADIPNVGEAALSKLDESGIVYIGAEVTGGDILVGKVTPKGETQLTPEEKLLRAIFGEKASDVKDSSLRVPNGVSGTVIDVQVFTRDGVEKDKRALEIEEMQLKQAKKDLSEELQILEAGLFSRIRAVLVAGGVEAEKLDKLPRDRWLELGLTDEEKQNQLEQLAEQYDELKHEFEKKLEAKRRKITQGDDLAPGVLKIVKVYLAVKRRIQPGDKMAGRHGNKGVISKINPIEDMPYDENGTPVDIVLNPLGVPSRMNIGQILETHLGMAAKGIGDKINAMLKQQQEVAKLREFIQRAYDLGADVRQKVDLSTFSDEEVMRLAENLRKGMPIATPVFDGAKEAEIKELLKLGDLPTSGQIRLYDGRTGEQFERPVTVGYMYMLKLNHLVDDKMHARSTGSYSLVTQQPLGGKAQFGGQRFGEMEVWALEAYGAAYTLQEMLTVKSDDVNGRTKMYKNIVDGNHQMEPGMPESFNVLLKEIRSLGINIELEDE
# RORA act: activates the human nuclear receptor RORA; 65,000 tested, 1.5% active; activation, % at 10 µM; P35398; AID 560; CHO-K1 Gal4-RORA LBD luciferase reporter, luminescence; percent increase over mock-subtracted basal signal;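 active = activation above the mean of all tested compounds plus 3 SD, cut at about 49% in these data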;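 also: 0% = DMSO-treated RORA cells and 100% = added signal equal to DMSO minus mock-transfected cells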
# CatS block: inhibitors of human cathepsin S. P25774. recombinant cathepsin S, AMC dipeptide fluorescence, pooled mixtures. inhibition, %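 (tested at 5 µM per compound within 10-compound mixtures)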. 62,000 tested, 0.06% active. AID 501; in the data active = inhibition above about 32%, passing the limit was not always enough;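 also: 0% = enzyme without compound and 100% = blank without enzyme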
# JNK3 blocker: JNK3 (human) kinase inhibition | purified JNK3 kinase activity, HTS | inhibition, % at 8 µM | 60,000 tested, 0.61% active | AID 746; in the data active = inhibition above about 17%;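 also: 0% = DMSO and 100% = reference inhibitor; many of its hits are not listed in these tables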
# AP complement: alternative pathway complement inhibition, orthogonal assay. inhibition, % at 5 µM. AID 1235. Human serum alternative complement pathway, LPS-coated ELISA, C3 deposition; tested in compound mixtures. 62,000 tested, 0.08% active;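 active = inhibition above 30% in each of the two pooled mixtures holding the compound, so the lower value exceeds 30%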;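 also: 0% = serum in Mg-EGTA without compound and 100% = EDTA serum blank; some compounds past the cut are filed as inactive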
#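 Test system – human serum alternative complement pathway, C3 deposition on LPS-coated wells · Buffer or medium – diluted human serum in Mg2+-EGTA GVB++ · Compound dosing – 5 µM each compound, pools of ten, 50 µM per pool · Schedule – 1 h serum-compound exposure at 37 °C · Measured by – Anti-C3 ELISA, OD 450 nm · Read-out basis – percent inhibition of C3 deposition onto LPS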
# CatB block: human cathepsin B inhibition. 63,000 tested, 0.1% active. purified cathepsin B, fluorogenic substrate, fluorescence. inhibition, %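 (tested at 10 µM)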; in the data active = inhibition above about 21%;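 also: 0% = enzyme with no compound and 100% = no enzyme blank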
# * = called active by the depositor; · = no result given.
# The first twelve records, ahead of the listing:
# Keys – A = CatB mixtures; B = E coli RNAP; C = RORA act; D = CatS block; E = JNK3 blocker; F = AP complement; G = CatB block
[1] CCOC(=O)N1CCC(N(C(=O)Nc2ccc(CC)cc2)C(C)CC)CC1 (configuration not stated)
  A: 7 | B: 3 | C: -15 | D: -5 | E: 0 | F: 13 | G: 5
[2] COc1ccc(NC(=O)CCN2CCCCCC2)c(OC)c1
  A: · | B: · | C: -4 | D: · | E: -4 | F: · | G: ·
[3] COc1cccc(C(=O)Nc2cccc(-c3nc4ncccc4o3)c2C)c1
  A: 4 | B: 1 | C: -3 | D: -2 | E: 6 | F: 17 | G: -2
[4] COc1ccccc1C(=O)NCc1ccc2c(c1)OCO2
  A: 5 | B: 7 | C: -28 | D: 10 | E: 11 | F: 3 | G: 1
[5] Cc1cccc(NC(=O)CSc2nnc(-c3ccco3)o2)c1C
  A: -2 | B: 7 | C: -15 | D: -23 | E: 1 | F: 13 | G: -1
[6] CCOc1cc(C)c(Cl)cc1S(=O)(=O)n1nnc2ccccc21
  A: 2 | B: 4 | C: -14 | D: -4 | E: -1 | F: 6 | G: 5
[7] CCOC(=O)c1cn(CC)c2cc(N3CCCCC3)c(F)cc2c1=O
  A: 4 | B: 2 | C: 1 | D: -3 | E: -12 | F: 11 | G: 3
[8] CCc1nc(OCCN(CC)CC)c2oc3ccccc3c2n1
  A: 9 | B: · | C: -6 | D: 1 | E: -2 | F: 13 | G: 10
[9] COc1ccc(C(=O)Nc2cc(C)on2)cc1
  A: 2 | B: 3 | C: 77* | D: 8 | E: -2 | F: -12 | G: 11
[10] COc1cccc(-c2nc(C(N)=O)c3[nH]c(=O)n(-c4cccc(Cl)c4)c3n2)c1OC
  A: -1 | B: 5 | C: 15 | D: 1 | E: -5 | F: 13 | G: 0
[11] O=C(Nc1nnc(-c2ccco2)s1)c1ccccc1
  A: 1 | B: 10 | C: 37 | D: 9 | E: -6 | F: 13 | G: -3
[12] CNC(=O)c1nnn(Cc2ccccc2)c1NC(C)=O
  A: 2 | B: -12 | C: -8 | D: 5 | E: 3 | F: -9 | G: 4

# The whole of this part (from the top)
# Keys – A = CatB mixtures; B = E coli RNAP; C = RORA act; D = CatS block; E = JNK3 blocker; F = AP complement; G = CatB block
[1] CCOC(=O)N1CCC(N(C(=O)Nc2ccc(CC)cc2)C(C)CC)CC1 (configuration not stated)
  A: 7 | B: 3 | C: -15 | D: -5 | E: 0 | F: 13 | G: 5
[2] COc1ccc(NC(=O)CCN2CCCCCC2)c(OC)c1
  A: · | B: · | C: -4 | D: · | E: -4 | F: · | G: ·
[3] COc1cccc(C(=O)Nc2cccc(-c3nc4ncccc4o3)c2C)c1
  A: 4 | B: 1 | C: -3 | D: -2 | E: 6 | F: 17 | G: -2
[4] COc1ccccc1C(=O)NCc1ccc2c(c1)OCO2
  A: 5 | B: 7 | C: -28 | D: 10 | E: 11 | F: 3 | G: 1
[5] Cc1cccc(NC(=O)CSc2nnc(-c3ccco3)o2)c1C
  A: -2 | B: 7 | C: -15 | D: -23 | E: 1 | F: 13 | G: -1
[6] CCOc1cc(C)c(Cl)cc1S(=O)(=O)n1nnc2ccccc21
  A: 2 | B: 4 | C: -14 | D: -4 | E: -1 | F: 6 | G: 5
[7] CCOC(=O)c1cn(CC)c2cc(N3CCCCC3)c(F)cc2c1=O
  A: 4 | B: 2 | C: 1 | D: -3 | E: -12 | F: 11 | G: 3
[8] CCc1nc(OCCN(CC)CC)c2oc3ccccc3c2n1
  A: 9 | B: · | C: -6 | D: 1 | E: -2 | F: 13 | G: 10
[9] COc1ccc(C(=O)Nc2cc(C)on2)cc1
  A: 2 | B: 3 | C: 77* | D: 8 | E: -2 | F: -12 | G: 11
[10] COc1cccc(-c2nc(C(N)=O)c3[nH]c(=O)n(-c4cccc(Cl)c4)c3n2)c1OC
  A: -1 | B: 5 | C: 15 | D: 1 | E: -5 | F: 13 | G: 0
[11] O=C(Nc1nnc(-c2ccco2)s1)c1ccccc1
  A: 1 | B: 10 | C: 37 | D: 9 | E: -6 | F: 13 | G: -3
[12] CNC(=O)c1nnn(Cc2ccccc2)c1NC(C)=O
  A: 2 | B: -12 | C: -8 | D: 5 | E: 3 | F: -9 | G: 4
[13] COc1ccc2cc3cc(C(=O)NCc4ccccn4)oc3nc2c1
  A: -28 | B: -87 | C: 35 | D: -32 | E: 3 | F: -7 | G: -30
[14] O=C(Nc1nc(-c2ccccc2)cs1)C1CCCCN1S(=O)(=O)c1ccccc1 (configuration not stated)
  A: -5 | B: -9 | C: -7 | D: -1 | E: -7 | F: 8 | G: 0
[15] c1ccc(-c2csc3ncn4nnnc4c23)cc1
  A: -2 | B: 6 | C: 6 | D: -9 | E: 5 | F: -2 | G: 2
[16] Cc1cc(NC(=O)c2ccc3c(c2)OCO3)no1
  A: -3 | B: 4 | C: 30 | D: 10 | E: 7 | F: 0 | G: ·
[17] Fc1cccc(-c2cc3nc4c(c(N5CCN(c6cnccn6)CC5)n3n2)CCCC4)c1
  A: 3 | B: 12 | C: 18 | D: 18 | E: -6 | F: -8 | G: 1
[18] COc1nc(OC)nc(N2CCC(C(=O)NCC3CCCCC3)CC2)n1
  A: 1 | B: 6 | C: -24 | D: 1 | E: 0 | F: 4 | G: 3
[19] O=C(CCCSc1nc(-c2ccco2)cc(C(F)(F)F)n1)Nc1ccc2c(c1)OCO2
  A: 4 | B: 4 | C: 6 | D: 3 | E: 0 | F: -12 | G: 8
[20] COCCCn1c(SCC(=O)N2CC(=O)Nc3ccccc32)nnc1-c1ccoc1C
  A: 0 | B: 5 | C: 19 | D: 5 | E: -8 | F: -1 | G: -2
[21] Nc1nnc(SCC(=O)c2ccccc2)s1
  A: 2 | B: 8 | C: 0 | D: 14 | E: 1 | F: 6 | G: -3
[22] c1ccc(-c2csc3ncn4cnnc4c23)cc1
  A: 2 | B: 1 | C: -3 | D: -2 | E: 9 | F: 6 | G: 0
[23] c1nc(N2CCCCCC2)c2[nH]cnc2n1
  A: 2 | B: 5 | C: -2 | D: 7 | E: 11 | F: 8 | G: 0
[24] COc1ccccc1OCC(=O)Nc1ccc(S(=O)(=O)N2CCCCCC2)cc1
  A: 4 | B: 11 | C: 2 | D: -6 | E: 5 | F: 13 | G: 0
[25] CC1(C)CC(=O)C(C=Nc2cccnc2)=C(O)C1
  A: 5 | B: 8 | C: -15 | D: 6 | E: -2 | F: 6 | G: -1
[26] Cc1cc(C)cc(NC(=O)CSc2nnc(-c3ccccc3C)o2)c1
  A: -8 | B: 3 | C: -17 | D: -4 | E: -4 | F: 14 | G: -3
[27] COc1cccc(NC(=O)CSC2=C(C#N)C(c3ccco3)C3=C(CCCC3=O)N2)c1 (configuration not stated)
  A: · | B: 12 | C: 3 | D: · | E: -2 | F: · | G: 1
[28] CCN(CCNC(=O)C1CCN(S(=O)(=O)CC)CC1)c1ccccc1
  A: 7 | B: 13 | C: -4 | D: 22 | E: -3 | F: 10 | G: 5
[29] c1ccc(CCc2nn3c(Cn4cnc5ccccc54)nnc3s2)cc1
  A: -4 | B: -7 | C: -18 | D: -7 | E: 4 | F: 15 | G: -2
[30] COC(=O)COc1cccc(NC(=O)c2cccs2)c1
  A: -3 | B: -5 | C: -11 | D: 2 | E: -3 | F: 9 | G: -3
[31] CCOc1cc(S(=O)(=O)N2CCCCC2)ccc1Cl
  A: 5 | B: 3 | C: 5 | D: -3 | E: 6 | F: 16 | G: 1
[32] COC(=O)CCC(=O)Nc1ccc(S(=O)(=O)N2CCCCCC2)cc1
  A: 3 | B: 3 | C: -5 | D: -5 | E: -5 | F: 14 | G: -3
[33] CC(C)OC(=O)CSc1nnnn1-c1ccc2c(c1)OCCO2
  A: -1 | B: 0 | C: 54* | D: 0 | E: 5 | F: 9 | G: 0
[34] CC(Nc1ncnc2nc[nH]c12)c1ccccc1 (configuration not stated)
  A: -5 | B: 4 | C: -4 | D: 2 | E: 1 | F: -7 | G: -5
[35] COc1ccccc1CNC(=O)Cn1nnc(-c2ccncc2)n1
  A: 3 | B: 2 | C: 2 | D: 4 | E: 2 | F: 22 | G: 5
[36] CC(C)CC(=O)Nc1ccc2oc(-c3ccncc3)nc2c1
  A: 5 | B: 7 | C: 35 | D: -2 | E: -2 | F: 9 | G: 4
[37] O=C(OCn1nnc2ccccc2c1=O)c1ccc2ncsc2c1
  A: 0 | B: 9 | C: -1 | D: -5 | E: -3 | F: 11 | G: 2
[38] c1ccc(-c2nn3c(Cn4nnc5ccccc54)nnc3s2)cc1
  A: 7 | B: 11 | C: 1 | D: 11 | E: 0 | F: -3 | G: 6
[39] CCCCC1CC1C(=O)Nc1ncc2c(n1)CC(C)(C)CC2=O (configuration not stated)
  A: 1 | B: 3 | C: -5 | D: 1 | E: -5 | F: 7 | G: 6
[40] COc1ccc(C2C=C(c3cccs3)Nc3nc(CCCO)nn32)cc1 (configuration not stated)
  A: -5 | B: -13 | C: -2 | D: -2 | E: 10 | F: -1 | G: -2
[41] C=CCn1c(SCC(=O)c2ccc(OC)cc2)nnc1C(C)NC(=O)c1cccs1 (configuration not stated)
  A: -5 | B: -6 | C: -10 | D: 11 | E: -1 | F: 11 | G: -3
[42] Cc1ccc(Nc2ncnc3nc[nH]c23)cc1Cl
  A: 3 | B: 3 | C: 67* | D: -7 | E: -1 | F: 17 | G: -5
[43] Cc1ccc(C)c(NC(=O)CSc2nnc(-c3ccccc3C)o2)c1
  A: 3 | B: 3 | C: -19 | D: 2 | E: -2 | F: -23 | G: 7
[44] COc1cccc2cc(-c3nnc(SCC(=O)NCc4ccccc4)n3C)oc12
  A: 4 | B: 9 | C: 1 | D: 13 | E: 1 | F: 3 | G: 4
[45] CC(=O)c1cccc(-n2nnnc2SCC(=O)Nc2cccc(NC(=O)c3ccco3)c2)c1
  A: 0 | B: 7 | C: -7 | D: 10 | E: 12 | F: -4 | G: 7
[46] COc1ccccc1-c1noc(CCC(=O)Nc2cccc(C(F)(F)F)c2)n1
  A: 0 | B: 1 | C: 6 | D: 0 | E: -2 | F: 1 | G: -2
[47] O=C(Nc1ccc2oc(-c3ccncc3)nc2c1)c1c(F)c(F)c(F)c(F)c1F
  A: -1 | B: 7 | C: -9 | D: 4 | E: 0 | F: 0 | G: -3
[48] COC(=O)Cc1c(C)nc2nc(-c3ccccc3)[nH]n2c1=O
  A: 3 | B: 2 | C: -12 | D: -7 | E: 0 | F: 9 | G: 4
[49] Cc1ccc(C)c(SCC(=O)Nc2nnc(-c3ccccc3)o2)c1
  A: 7 | B: 11 | C: 0 | D: 19 | E: 2 | F: 4 | G: -7
[50] Clc1ccc(CCNc2ncnc3nc[nH]c23)cc1
  A: 4 | B: 12 | C: -16 | D: 10 | E: -1 | F: 16 | G: -1

# Compound activity as filed in PubChem BioAssay.

# Only part of the results is shown. The share of hits here may be higher or lower than overall.
